Source: PubChem BioAssay
RVFV N-RNA inh: inhibitors of RVFV nucleoprotein–RNA binding, primary screen, biochemical, fluorescence polarization; P21700; RVFV N-RNA binding; hits give low values; % bound, % (concentration not given with the values); 0.1% of 20,000 active; AID 651828, 2012;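 active = between 0 and 58% in either replicate with normal brightness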;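 also: 100 nL library stock added to about 12 µL; 100% = protein and probe without compound and 0% = probe alone; numbers are from one replicate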
Target sequence (P21700 whole entry, looked up): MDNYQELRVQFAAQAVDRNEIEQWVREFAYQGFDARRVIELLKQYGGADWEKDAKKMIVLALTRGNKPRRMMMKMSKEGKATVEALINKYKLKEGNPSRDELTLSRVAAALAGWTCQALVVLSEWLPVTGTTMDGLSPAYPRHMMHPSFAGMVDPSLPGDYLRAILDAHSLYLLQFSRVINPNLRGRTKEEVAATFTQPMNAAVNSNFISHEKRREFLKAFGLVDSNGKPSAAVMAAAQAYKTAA
An asterisk follows results filed as active; & = joins results of further samples. A portion of the library. The share of hits here may be higher or lower than overall.

SMILES	RVFV N-RNA inh
O=C1CC(c2ccco2)CC(O)=C1C=Nc1cc(Cl)ccc1Cl (stereo unspecified)	98
S=C(Nc1cccnc1)N1CCCCC1	106
c1ccc2c3c([nH]c2c1)CCC3	94
CCOCC(=O)N1CCC(C(=O)OCC)CC1	95
Cc1nc(-c2cccnc2)cs1	105
CN(C)C=C1C(=O)N(C2CCCCC2)C(=O)N(C2CCCCC2)C1=O	94
CCOC(=O)c1ccc(N2CCOCC2)c(NC(=O)c2nccnc2C(=O)O)c1	91
COc1cccc(/C=N/NC(=O)C2CC23CCC3)c1O (stereo unspecified)	82
Cc1ccc(C)c(NC2=NCCS2)c1	99
C/C(=C\C(=O)c1ccc(C)o1)Nc1ccc(F)c(C)c1	97
CS(=O)(=O)Nc1ccccc1C(=O)N1CCOCC1	92
CCNC(=O)NNc1c(Cl)cccc1Cl	95
N=C(N)c1ccc(OCCCCCOc2ccc(C(=N)N)cc2)cc1	92
O=C(CSC1=NS(=O)(=O)c2cc(Cl)ccc2N1)NCc1ccc2c(c1)OCO2	88
O=C1CN(c2ccc(Cl)cc2)C(=O)CN1/N=C/c1ccco1	91
N#Cc1cccc(NC(=O)c2sc3nc4c(cc3c2N)C2CCN4CC2)c1	99
N=c1n(-c2ccccc2)c(=N)n(-c2ccccc2)c(=N)n1-c1ccccc1	95
O=c1cc(CN2CCN(Cc3ccccc3)CC2)occ1OCc1cccc(F)c1	90
Cc1cccc(OC(C)C(=O)Nc2ccc(S(N)(=O)=O)cc2)c1 (stereo unspecified)	95
CNC(=O)CSc1nc2ccccc2c(=O)n1C1CCCCC1	95
CC(OC(=O)CCN1C(=O)c2ccccc2C1=O)c1ccccc1 (stereo unspecified)	88
Cc1cccc(-c2noc(NC(=O)NNc3c(Cl)cccc3Cl)n2)c1	107
NN1CCN(Cc2cccc3ccccc23)CC1	94
O=C(Nc1ccc(Cl)cc1)Nc1nc(CC(=O)N2CCN(C(=O)c3ccco3)CC2)cs1	98
COc1ccc(CCN(C)CCc2ccc(OC)c(OC)c2)cc1OC	99
C1C2OC3CC4C1C1CC4C3C21 (stereo unspecified)	94
CCS(=O)(=O)NCC1COC2(CCCCC2)O1 (stereo unspecified)	94
Cc1ccc(S(=O)(=O)Nc2ccc(C(=O)Nc3cc(C)on3)cc2)cc1	90
CO[C@@H]1[C@@H](OC(N)=O)[C@H](O)[C@H](Oc2ccc3c(O)c(NC(=O)c4ccc(O)c(CC=C(C)C)c4)c(=O)oc3c2C)OC1(C)C	106
CCCN1CCC(NC(=S)NCCOC)CC1	87
Cc1[nH]nc2oc(=O)c(Cl)c(C)c12	98
Cc1cc(Cl)ccc1OC(C)C(=O)Nc1ccc2c(c1)OCO2 (stereo unspecified)	104
Cc1cc(OCCCN2CCCC2)ccc1Cl	96
Nc1ccc(C(=O)N2CCCc3ccccc32)cc1	95
O=c1[nH]c(=S)[nH]cc1OCc1ccccc1	93
COc1ccc(-c2cc(=O)c3c(OC)c(OC)c(OC)c(OC)c3o2)cc1OC	94
O=C(COc1ccc(S(=O)(=O)N2CCOCC2)cc1)Nc1ccccc1C(F)(F)F	103
O=C1CC(N2CCN(Cc3ccccc3)CC2)C(=O)N1Cc1ccccc1 (stereo unspecified)	94
CCOc1ccc(S(=O)(=O)N2CCN=C2c2ccccc2)cc1C	92
Cc1ccccc1OCC(=O)NC1CC2CCC1C2 (stereo unspecified)	106
CNC(=S)NCCCc1ccccc1	97
CCCCN1C(=O)CC(N2CCN(c3ccc(F)cc3)CC2)C1=O (stereo unspecified)	94
Cc1ccc(COc2coc(CN3CCc4ccccc43)cc2=O)cc1	109
O=C(NCCCO)c1ccc(Cl)cc1	96
CCCC(=O)Nc1ccc(OCC(O)CNC(C)C)c(C(C)=O)c1 (stereo unspecified)	98
COc1ccccc1COn1c(=O)c(-c2ccco2)[n+]([O-])c2ccccc21	101
Cc1ccc(S(=O)(=O)c2c[nH]c3ccccc3c2=O)cc1	90
CCOC(=O)/C(C#N)=C/Nc1ccccc1	99
CC1Cc2ccccc2N1C(=O)C1CCCN1S(=O)(=O)c1ccc(Cl)cc1 (stereo unspecified)	95
CCNC(=O)N1CCN(C(=O)NCC)CC1	88
CC(C)(O)C(=O)CCc1ccccc1	99
CN(C)C(=O)CCCOc1ccccc1	93
O=S(=O)(c1cccc2c(Cl)cccc12)N1CCCNCC1	94
CC(=O)N1c2ccc(F)cc2C(C)CC12CCCC2 (stereo unspecified)	87
COC(=O)COc1ccc(S(=O)(=O)Nc2cc(OC)ccc2OC)cc1	100
CCOC(=O)C1CCN(/C=C2\C(=O)NC(=S)N(CC)C2=O)CC1	91
C/C(=N\NC(=O)c1ccc(CN2CCOCC2)cc1)c1ccc2c(c1)OCCO2	90
Cn1cnc(CCN)c1	97
O=C1OC2CC3CCC2C1C3 (stereo unspecified)	99
O=S(=O)(Cc1ccc2nonc2c1)c1ccc(C(F)(F)F)cn1	88

The listing continues.
SMILES	RVFV N-RNA inh
CCN1C(=O)CSC1=NC12CC3CC(CC(C3)C1)C2	89
O=C(CCc1ccc(O)cc1)N/N=C/c1coc2ccccc2c1=O	85
C[C@](N)(Cc1ccc(O)c(O)c1)C(=O)O	100&97
Cc1cc2cc(OCc3ccccc3)ccc2n1C	100
COC(=O)C(C)(C)NC(=O)Nc1ccc(Cl)cc1Cl	91
CCc1c(C)sc(NC(=O)/C=C/c2cccs2)c1C(=O)OC	96
COCC(O)CSc1nc(C)cc(C)n1 (stereo unspecified)	104
CC(C)(C)c1ccc(C(=O)NCc2nnc(SCC(=O)Nc3ccc4c(c3)OCO4)o2)cc1	97
N#CC1CCN(CCS(=O)(=O)c2ccc(Cl)cc2)CC1	91
O=C(NCC1CCCN1S(=O)(=O)c1ccccc1)Nc1ccccc1 (stereo unspecified)	99
CC(=O)Nc1ccc(S(=O)(=O)N2CCN(C/C=C/c3ccccc3)CC2)cc1	87
OCCSc1nnc(-c2cc3ccccc3o2)n1-c1ccccc1	97
O=C(Nc1nnc(C2CC2)o1)c1ccc(S(=O)(=O)N2CCCCC2)cc1	96
CCCNC(=S)N1CCN(S(=O)(=O)c2ccc(OC)c(OC)c2)CC1	92
O=C(CN1CCOCC1)NN1CC(=O)N(c2ccccc2)CC1=O	94
Clc1ccc2c(c1)CCc1cccnc1C2=C1CCNCC1	100&96
Cc1nc(C(F)(F)F)ccc1-c1nnc(SCc2ccc(OC(F)(F)F)cc2)o1	94
Cc1nc(-c2ccc(OCC(C)C)c(C#N)c2)sc1C(=O)O	105
N/C(CN1CCSCC1)=N\OCc1c(Cl)cccc1Cl	93
CC(C)CCN1C(=O)c2ccc(-c3nc4ccccc4o3)cc2C1=O	90
O=C(NOC(=O)c1ccccc1)c1ccccc1	102
CCCc1cc(=O)[nH]c(/N=C(/NC(=O)c2ccccc2)Nc2ccccc2)n1	95
COc1ccccc1OCCN1CCOCC1	96
Cc1occc(=O)c1O	98
COc1ccc2nc(NNC(=O)C3COc4ccccc4O3)sc2c1 (stereo unspecified)	94
C=CCN(CC=C)S(=O)(=O)c1ccc2nc(NC(=O)C(C)C)sc2c1	101
COC1=C(C2(O)CCCc3c2no[n+]3[O-])CCc2c1no[n+]2[O-] (stereo unspecified)	111
O=C(CSc1nccc(=O)[nH]1)c1ccc(Br)cc1	98
COc1cccc(C(=O)NCCN2CCN(c3ccc(Cl)cc3)CC2)c1	94
CCN(CC)C(=O)c1sc2nc(-c3ccccc3)ccc2c1N	97
CCC(C)NS(=O)(=O)c1ccc(NC(=O)c2cccs2)cc1 (stereo unspecified)	100
CO[C@@]12[C@H](COC(N)=O)C3=C(C(=O)C(C)=C(N)C3=O)N1C[C@@H]1N[C@@H]12	93
COc1cccc(N2CC(=O)N(/N=C/c3ccc(C)o3)CC2=O)c1	93
CN1CCN(C(=O)c2cccc(S(=O)(=O)N(C)C)c2)CC1	93
CC(=O)Nc1ncc(CN2CCCCC2)s1	91
O=c1c(N2CCCC2)csc2ccc(F)cc12	106
CCCn1c(=O)c2[nH]c(-c3ccc(S(=O)(=O)O)cc3)nc2n(CCC)c1=O	96
O=C(CSc1ccc2nnc(-c3cccnc3)n2n1)NCc1ccccc1	93
CCc1ccc(CCC(=O)Nc2sc3c(c2C(=O)OC)CCCC3)o1	92
CN(c1ccccc1C(=O)N1CCN(c2cccc(Cl)c2)CC1)S(C)(=O)=O	96
N#Cc1sc2nccc(Nc3ccccc3)c2c1N	93
O=C(Nc1ncnc2sccc12)C1CCCCC1	94
Cc1cccc(C(=O)N/N=C/c2ccc[nH]2)c1	106
O=c1c2c3c(sc2nc(SCc2ccccc2)n1Cc1ccco1)CCC3	91
OCC(O)CCO/N=C1/C(c2c(O)[nH]c3ccccc23)=Nc2ccccc21 (stereo unspecified)	97
CC12CCC3C4CCC(=O)C=C4CCC3C1CCC2O (stereo unspecified)	89
O=C(NCC(c1cccnc1)N1CCOCC1)Nc1ccccc1 (stereo unspecified)	92
COc1ccc(C2=NOC(CNC(N)=S)C2)cc1 (stereo unspecified)	86
Cn1nc(C(C)(C)C)cc1NC(=O)Nc1cccc2ccccc12	104
Cc1ccc(C2C(C(=O)c3ccco3)=C(O)C(=O)N2CCCN(C)C)o1 (stereo unspecified)	96
C/C(=N/NC(N)=O)c1ccc2c(c1)Cc1ccccc1-2	98
Cn1c(SCc2ccccc2Cl)nc2ccccc21	97
Cc1ccc(NC(=O)CSC2=NC(=O)CC(=O)N2)cc1	96
C=CCn1cc(/C=N/N2C(=O)C3C4C=CC(C4)C3C2=O)c2ccccc21 (stereo unspecified)	99
NC(=O)CN1C(=O)S/C(=C\C=C\c2ccccc2)C1=O	97
CNC(=S)NNS(=O)(=O)c1ccc2ccccc2c1	95
O=C(c1ccccc1)N1CCNCC1	99
COc1cccc2c(=O)n(CC(=O)N3CCOCC3)ccc12	103
Oc1c(Cl)cc(Cl)cc1/C=N/NCCc1ccccn1	95
COc1ccc(-c2nc3scc(CCNS(=O)(=O)N(C)C)n3n2)cc1	98

Additional structures follow:
SMILES	RVFV N-RNA inh
COc1ccc(CC(=O)N2CCN(c3ccccc3)CC2)cc1	98
CCCCCC(=O)C1CCCCC1=O (stereo unspecified)	101
O=C(CSc1nc2ccccc2[nH]1)Nc1ccc(N2CCOCC2)cc1	91
Cc1nn(C)c2[nH]c(C(F)(F)F)cc(=O)c12	92
COc1ccc(N2C(=O)CC(c3ccccc3)C2=O)cc1 (stereo unspecified)	102
CCN(C#N)c1ccc(Cc2ccc(N(C#N)CC)cc2)cc1	93
CC1CC(C)CN(C(c2ccco2)c2sc3ncnn3c2O)C1 (stereo unspecified)	91
COc1cc(C(O)CO)ccc1OS(=O)(=O)O (stereo unspecified)	96
COc1cc(OC)c(OC)cc1CN1CCN(c2cccc(C)c2C)CC1	97
CC1CC(NC(=S)NCCO)CC(C)(C)C1 (stereo unspecified)	94
CCOC(=O)N1CCN(S(=O)(=O)c2ccc(C(=O)Nc3cc(C)on3)cc2)CC1	93
Cc1ccc(C(C)(C)C)c(OCCOCCN2CCCC2)c1	98
CCCCc1cc(=O)oc2c(CN(C)C)c(O)ccc12	92
C=CCSc1nc(-c2ccccc2)c(C#N)c(=O)[nH]1	100
CCOC(=O)CC(SP(=S)(OC)OC)C(=O)OCC (stereo unspecified)	108
Cc1cc(C(=O)Nc2nc(-c3ccccc3)c(-c3ccccc3)s2)no1	101
CC(=O)OCC(=O)[C@@]1(O)CCC2C3CCC4=CC(=O)C=C[C@]4(C)[C@@]3(Cl)[C@@H](Cl)C[C@@]21C (stereo partly specified)	97
O=C1C=CC(=O)N1c1ccc(-c2nc3ccccc3o2)cc1	87
CN(C)NS(=O)(=O)c1ccc2c(c1)Cc1cc(S(=O)(=O)NN(C)C)ccc1-2	92
Fc1ccc(NC(=S)NC2CC2)cc1Cl	94
CCOC(=O)COc1cc(=O)[nH]c2ccc(OC)cc12	94
Cc1c(Cc2ccccc2)c(=O)oc2c(O)c(O)ccc12	98
CC(=O)N1c2ccccc2NC2=C(C(=O)CC(C)(C)C2)C1c1cccnc1 (stereo unspecified)	96
O=C(Nc1ccccc1F)Oc1ccccc1F	94
CON=C1C[C@]2(C[C@@H]3C[C@@H](C/C=C(\C)C[C@@H](C)/C=C/C=C4\CO[C@@H]5[C@H](O)C(C)=C[C@@H](C(=O)O3)[C@]45O)O2)O[C@H](/C(C)=C/C(C)C)[C@H]1C	100
COc1ccccc1O	95
CCCCNC(=O)C1OCCc2ccccc21 (stereo unspecified)	95
O=C1CCN(c2ccccc2)N1CCOc1ccc(Cl)cc1Br	93
NNC(=O)N/N=C/c1ccc(I)cc1	91
O=S(=O)(NCc1cc(F)cc2c1OCOC2)c1cccc2nonc12	96
CC(C)=NNC(=S)NC1CC2CCC1C2 (stereo unspecified)	100
